PABP polyA inh – blocks human PABP binding to poly(A) RNA; fluorescence polarization; AID 2014; 1% of 290,000 active; inhibition, % at 35 µM;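 active means 50% or more with normal probe brightness, or confirmed in later tests; inconclusive means above 50% with abnormal brightness, or retests that disagree; inactive means below 50% or failed in later tests; about a fifth of its hits are not listed in these tables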;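 further: calls also rest on retests at 20 µM and on dose response follow-up; controls were probe without protein and protein plus probe with vehicle; some compounds called inactive have numbers as strong as hits; many hits fall short of the cut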
Target sequence (P11940 whole entry, looked up): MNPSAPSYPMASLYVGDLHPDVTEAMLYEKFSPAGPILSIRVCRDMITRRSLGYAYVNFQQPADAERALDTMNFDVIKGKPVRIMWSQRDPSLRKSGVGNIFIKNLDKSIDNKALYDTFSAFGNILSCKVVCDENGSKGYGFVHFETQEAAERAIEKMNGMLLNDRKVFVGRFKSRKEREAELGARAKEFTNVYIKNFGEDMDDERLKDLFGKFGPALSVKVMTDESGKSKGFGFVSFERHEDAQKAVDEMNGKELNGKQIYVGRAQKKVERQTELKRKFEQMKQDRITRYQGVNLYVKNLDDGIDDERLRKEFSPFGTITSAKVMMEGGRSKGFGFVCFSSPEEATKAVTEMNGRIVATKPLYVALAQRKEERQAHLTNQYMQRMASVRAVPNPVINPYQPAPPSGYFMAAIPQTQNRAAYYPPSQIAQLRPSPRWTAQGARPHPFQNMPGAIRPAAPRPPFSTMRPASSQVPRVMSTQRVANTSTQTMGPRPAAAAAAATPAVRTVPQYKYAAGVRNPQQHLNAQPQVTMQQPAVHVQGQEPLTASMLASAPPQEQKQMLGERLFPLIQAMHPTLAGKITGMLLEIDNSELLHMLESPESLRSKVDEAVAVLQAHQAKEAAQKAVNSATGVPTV
eIF4H inh – inhibitors of RNA binding by human eIF4H | eIF4H fluorescence polarization binding assay | inhibition, % at 35 µM | 0.94% of 290,000 active | AID 2012;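 active means 50% or more with normal probe brightness, or confirmed in later tests; inconclusive means above 50% with abnormal brightness, or retests that disagree; inactive means below 50% or failed in later tests; about a fifth of its hits are not listed in these tables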;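 further: calls also rest on retests at 20 µM and on dose response follow-up; 0% = protein and probe with vehicle and 100% = probe without protein; strong numbers were not always called active; many hits fall short of the cut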
MT1-MMP act inh – inhibitors of human MT1-MMP activation; 0.061% of 360,000 active; HT1080 RFP-PRO-GFP cells, GFP/RFP ratio fluorescence, overnight; percent of plate control window, DMSO zero; GFP/RFP ratio change, % at 20 µM; P50281; AID 651647;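 active means GFP/RFP ratio change of at least 30% with cell ATP level not reduced by more than half and red fluorescence within 50% of control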; further: strong numbers were not always called active
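Assay system: HT1080 RFP-PRO-GFP cells | Dosing: 20 µM single dose, 1% DMSO | Incubation: Cells overnight before dosing, compound overnight, 37 °C, 5% CO2 | Evaluation: GFP/RFP fluorescence ratio | Control set: DMSO-only wells and HT1080 RFP-L50D-GFP cell wells as references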
Env fusion inh – HIV envelope-mediated fusion inhibition; 1.1% of 360,000 active; inhibition, % at 12.3 µM; HeLa-JRFL Env/CEM21 cell fusion, luciferase;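 active means mean replicate inhibition score of at least 50 and every replicate individually at or above 50; inconclusive means only one of the two criteria met; inactive means mean below 50 and not all replicates reaching 50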;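 further: 0% = plate neutral controls and 100% = maraviroc near 300 nM; one replicate is shown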
Yeast UUG start – modulators of start codon recognition fidelity in yeast; activity score, % at 18.7 µM; 0.13% of 350,000 active; S. cerevisiae UUG-firefly luciferase reporter, luminescence/redox ratio;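 active means replicate mean at a twofold rise or more, about +100% in these data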;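 further: firefly luciferase made from a UUG start codon reports start codon fidelity; reporter light over untreated wells divided by growth signal over untreated wells; some hits fall short of that in this replicate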
CSC inhib – cancer stem cell inhibition | cancer stem cell-like cells viability, luminescence | inhibition, % at 7.5 µM | 1.1% of 300,000 active | AID 2717;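 active means mean at 75% or more and at least half the replicates too; inconclusive means mean and replicates disagree; tested in HMLE shEcad cells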;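 further: 0% = median of negative and 100% = median of positive control wells; the first replicate is given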
Rce1 inhib – inhibitors of yeast Ras-converting enzyme; calls only; Q03530; 0.27% of 290,000 active; yeast membranes, quenched prenylated peptide cleavage fluorescence; AID 2563;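 active means fall in fluorescence gain of 50% or more versus controls, with final raw signal at or below 3038400; inconclusive means same 50% fall but final raw signal above 3038400; inactive means fall in fluorescence gain under 50%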;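 further: plate controls were neutral control wells for no effect and wells lacking membranes for full effect; tested at 10 µM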
MT1-MMP act inh RFP – recorded beside MT1-MMP act inh, whose call it bears; RFP signal change, %; measured here: RFP expression control read;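 0 = vehicle wells; hits needed this value within 50% of zero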
The depositor's hits bear a star; i = inactive; u = inconclusive; x = not tested or not shown; & = joins results of further samples. A portion of the library, so the mix of outcomes need not match the whole.

entry	SMILES	MT1-MMP act inh	CSC inhib	Rce1 inhib	Env fusion inh	eIF4H inh	MT1-MMP act inh RFP	PABP polyA inh	Yeast UUG start
1	CCCCc1nc2cc(C(=O)N3CCN(c4cnccn4)CC3)ccc2o1	1	1	i	-1	-8	2	5	-18
2	COc1ccc(-c2nnc(SCCc3ccccc3)n2N)cc1	6	-4	i	x	-4	0	-5	-7
3	Cn1ccc2c(-c3cncc4ccccc34)cc3c(c21)C1CCC3O1 (stereo not drawn)	-2	x	x	47	x	-6	x	2
4	COc1ccc(S(=O)(=O)Nc2cc(C)ccc2OC)cc1C	0	10	i	x	-7	-6	0	-3
5	CSc1nc2nc(-c3cccs3)cc(C(F)(F)F)c2c(=O)[nH]1	-6	-12	i	1	-7	-5	2	-10
6	Cn1c(Oc2ccc3c(c2)OCO3)nc2c1c(=O)n(Cc1ccccc1)c(=O)n2C	7	7	i	x	-6	-6	1	1
7	CC(C)c1ccc(/C=C2\SC(=S)N(CC(=O)NCCCN3CCOCC3)C2=O)cc1	5	x	i	-5	1	2	2	-10
8	CCC(CO)Oc1cc(NC(=O)c2cccc([N+](=O)[O-])c2)c2ncn(C(C)C)c2c1 (stereo not drawn)	5	x	x	u	x	0	x	17&-18
9	Cc1oc(CC(C)C)c(CN)c1C(=O)O	-4	8	i	x	0	3	12	2
10	COc1ccc(CC(N)c2csc(NC(=O)Nc3cccc(C(F)(F)F)c3)n2)cc1 (stereo not drawn)	-21	x	x	u	x	-22	x	26
11	COc1ccc(CCNC(=O)CC2Nc3ccccc3NC2=O)cc1OC (stereo not drawn)	-6	-15	i	-24	-2	6	-6	3
12	COc1ccc(C(=O)N[C@H](C(=O)Nc2ccc(OC)nc2)C(C)C)cc1	1	-13	i	x	16	11	32	-10
13	S=C(NCCc1ccccc1)N1CCN(C2CCCCC2)CC1	4	37	i	-1	-11	3	-11	-9
14	CC(Sc1nnc(-c2ccccc2Br)n1-c1cccc(C(F)(F)F)c1)C(N)=O (stereo not drawn)	-1	-13	i	-32	3	6	14	x
15	CCCn1c2ccccc2c2cnn(CC(=O)O)c(=O)c21	3	-8	i	-7	-7	7	-5	-9
16	COC(=O)[C@H](C)NC(=O)N1CCC(Cc2ccccc2)CC1	-4	-1	i	11	12	-2	-4	-6
17	O=C(c1cccc(C(=O)N2CCN(c3ccccc3F)CC2)c1)N1CCN(c2ccccc2F)CC1	0	-21	i	x	1	-6	0	14
18	CCN(CC)CCNCC1C(=O)O[C@@H]2C[C@@]3(C)CCC[C@H](C)C3=C[C@H]12 (stereo partly drawn)	-19	33	i	12	2	-18	35	-11
19	CCCN1C(=O)/C(=C/c2ccc(C)o2)NC1=S	x	4	i	x	39	x	4	x
20	CC(C)Cc1cc(C(=O)Nc2sc3c(c2C#N)CCCC3)no1	-7	9	i	-41	-3	-9	8	-13
21	Cc1nn(CCCNC(=O)C2CCCO2)cc1Br (stereo not drawn)	4	-10	i	-18	-9	15	3	-8
22	O=C(NCCSCc1ccc(Cl)cc1Cl)c1ccc(CN2CCOCC2)cc1	-1	25	i	8	-9	-23	-23	-12
23	Clc1ccc(Nc2ncnc3ccc(Br)cc23)cc1	-27	u	i	x	10	-23	-2	-16
24	COc1ccc(S(=O)(=O)N2CC3CCCN3c3ccc(C(F)(F)F)cc32)cc1 (stereo not drawn)	-5	55	i	-1	1	-3	-5	-16
25	Cc1ccc(CNC(=O)CSc2ncccn2)cc1	4	-8	i	-99	-3	3	16	-27
26	COc1ccc(/C=C/C(=O)NC(=S)Nc2ccc(Br)cn2)cc1	5	x	i	-10	11	2	2	-21
27	CC(/C=N/NC(=O)CCn1nnc2ccccc21)=C\c1ccccc1	0	-7	i	-22	-8	-1	-11	x
28	O=C1NCCN1CCNc1nc(NCC2CC2)nc2cc(-c3ccccc3)sc12	4	x	x	-267	x	7	x	1
29	COc1ccc(CC(C)Nc2ccccc2F)cc1 (stereo not drawn)	0	-10	i	17	-1	4	8	1
30	CCOC(=O)c1c(C)oc2c1c(CN1CCN(CCO)CC1)c(O)c1ccccc12	-4	x	x	-137	25	0	-6	x

Record cards (already shown). Order of values: MT1-MMP act inh | CSC inhib | Rce1 inhib | Env fusion inh | eIF4H inh | MT1-MMP act inh RFP | PABP polyA inh | Yeast UUG start
Record of `COc1ccc(C(=O)N[C@H](C(=O)Nc2ccc(OC)nc2)C(C)C)cc1` : 1 | -13 | i | x | 16 | 11 | 32 | -10
Record of `CC(C)Cc1cc(C(=O)Nc2sc3c(c2C#N)CCCC3)no1` : -7 | 9 | i | -41 | -3 | -9 | 8 | -13

Values in list order from above:
Nos. 4–15 in Yeast UUG start: -3, -10, 1, -10, 17&-18, 2, 26, 3, -10, -9, x, -9

5 compounds out of the list, sorted by SMILES length, descending:
entry	SMILES	MT1-MMP act inh	CSC inhib	Rce1 inhib	Env fusion inh	eIF4H inh	MT1-MMP act inh RFP	PABP polyA inh	Yeast UUG start
18	CCN(CC)CCNCC1C(=O)O[C@@H]2C[C@@]3(C)CCC[C@H](C)C3=C[C@H]12 (stereo partly drawn)	-19	33	i	12	2	-18	35	-11
14	CC(Sc1nnc(-c2ccccc2Br)n1-c1cccc(C(F)(F)F)c1)C(N)=O (stereo not drawn)	-1	-13	i	-32	3	6	14	x
27	CC(/C=N/NC(=O)CCn1nnc2ccccc21)=C\c1ccccc1	0	-7	i	-22	-8	-1	-11	x
16	COC(=O)[C@H](C)NC(=O)N1CCC(Cc2ccccc2)CC1	-4	-1	i	11	12	-2	-4	-6
15	CCCn1c2ccccc2c2cnn(CC(=O)O)c(=O)c21	3	-8	i	-7	-7	7	-5	-9

(further entries)
entry	SMILES	MT1-MMP act inh	CSC inhib	Rce1 inhib	Env fusion inh	eIF4H inh	MT1-MMP act inh RFP	PABP polyA inh	Yeast UUG start
31	NC(c1ccccc1)c1cccnc1 (stereo not drawn)	-3	6	i	3	5	3	12	-12
32	COc1ccc(OC)c(Nc2ncnc3c2cnn3-c2ccccc2)c1	6	3	i	x	-4	0	1	-14
33	CCOC(=O)C1CC2=C(CCCC2=O)NC1=O (stereo not drawn)	-2	x	x	-47	x	1	x	-2
34	Fc1ccc([C@@H]2CCNC[C@H]2COc2ccc3c(c2)OCO3)cc1	-2&-10&-10	6&17	i	-30&-20&6	0	-2&-5&-5	-6	-12&-29&-9
35	COc1ccc(CCn2c(-c3ccncc3)n[nH]c2=S)cc1OC	-3	2	i	1	3	3	19	x
36	CN(C)CCNC(=O)c1cc2ccccc2oc1=O	-1	2	i	x	-3	2	-9	-19
37	Cc1nc(CN2CCCC2=NC#N)n(-c2ccccc2)n1	0	-9	i	x	2	0	0	-10
38	Cc1ccc(/C=C/C(=O)OCC(=O)N(CC(C)C)c2c(N)n(Cc3ccccc3)c(=O)[nH]c2=O)o1	4	1	x	-47	x	0	x	25
39	N#Cc1ccc(NC(=O)Cn2cnc([N+](=O)[O-])c2)cc1	1	-16	x	10	-5	1	-10	0
40	O=C(CC(NC(=O)c1ccccc1)c1ccccc1)Nc1ccc(F)c(F)c1 (stereo not drawn)	4	0	i	-3	-9	-5	15	x
41	CC1=C(C(=O)OCc2ccccc2)C(c2ccccc2Cl)NC(=O)N1CCCCCC(=O)O (stereo not drawn)	2	-5	i	-11	1	-3	-5	-10
42	Cc1ccc(C(=O)N/C(=C\c2ccc(-c3ccc(Br)cc3)o2)C(=O)NCCCN(C)C)cc1	-19	u	i	-7	-2	-21	-6	x
43	COc1cccc(CN(CC(=O)NCc2ccccc2)C(=O)c2csnn2)c1	-3	x	i	2	-4	-3	-2	6
44	Cc1cccc(OCCCC(=O)Nc2ccc(S(=O)(=O)Nc3onc(C)c3C)cc2)c1	-2	-12	i	x	-3	3	5	x
45	COc1cc(OC)cc(-c2c(-c3ccc(F)cc3)c3cc(Br)ccc3n2C)c1	-5	34	x	15	x	1	x	-19
46	Cc1cc(C)n(-c2nc(C(F)(F)F)nc3ccccc23)n1	1	-6	i	8	-4	-1	-6	3
47	CCc1c(C)nc(N)n2c(SCC(=O)Nc3ccccc3)nnc12	-1	-10	i	-95	0	-3	5	-20
48	CCN1C(=O)CSC1=Nc1ccc(C(=O)O)cc1	9	-5	i	1	-7	5	-6	-15
49	CCc1ccc2c(c1)NC(=O)C2(C)Cc1ccccc1 (stereo not drawn)	-5	x	x	7	x	-5	x	2
50	COc1ccc(Nc2nc(N3CCCCC3)c3ccccc3n2)cc1	-2	16	i	x	-5	-15	0	-14
51	O=C(NCC1CCCO1)c1cccc2ccccc12 (stereo not drawn)	-2	-6	i	0	-2	-3	0	-11
52	CN(C)S(=O)(=O)c1ccc(N/C=C(\[N+](=O)[O-])S(=O)(=O)c2ccccc2)cc1	-6	4	i	3	0	-5	2	-9
53	Cc1nnc(NC(=O)Cc2cccs2)s1	4	-1	i	x	25	3	4	-30
54	CCOC(=O)[C@H]1[C@H]2COc3ccc(C)cc3[C@@H]2N2C(=O)CN(Cc3ccc(F)cc3)C(=O)[C@@]12C	-1	-17	x	-28	x	4	x	-6
55	CN(CC(=O)N1CCN(c2ccccc2F)CC1)S(=O)(=O)c1cnc[nH]1	1	14	i	-18	-9	7	-2	x
56	COc1cc2c(cc1OC)C(C(=O)NCc1cccnc1)C(c1cccnc1)N(C)C2=O (stereo not drawn)	-1	-8	i	13	-10	5	-5	-5
57	O=C(/C=C/c1ccccc1)CC(=O)c1ccccc1O	-6	18	i	-104	-14	-9	-13	x
58	CCN(CC(=O)Nc1ccc(OC)cc1)C(=O)c1ccc2[nH]c3c(c2c1)CC(C)CC3 (stereo not drawn)	2	x	x	-1	x	-5	x	7
59	CSc1cccc(NC(=O)COc2cccc3ccccc23)c1	9	-3	i	x	-4	8	-4	-26
60	CCCCCC(C)n1[nH]c(=O)cc1N (stereo not drawn)	-2	-6	i	x	-7	6	2	-3
61	CCCOc1ccc(C(=O)Nc2ccccc2[N+](=O)[O-])cc1	0	20	i	x	x	2	x	-16
62	Cn1c(CNC(=O)CNC(=O)c2ccccc2)cc(=O)n(C)c1=O	1	-17	i	-4	-4	4	-2	-9

Source: PubChem BioAssay (several laboratories)
